Assay outcomes: PubChem BioAssay, National Center for Advancing Translational Sciences (NCATS)
miR-21 FLuc = qHTS Assay for Modulators of miRNAs and/orActivators of miR-21. HeLa miR-21 FLuc reporter, luciferase, 48 h. Potency, µM (series often up to 38.3 µM), inactives show at the top dose reporter change, positive = more light. 340,000 tested, under 10 active. AID 2288, 2010; active = well fitted rising curve with a large enough effect; inconclusive = small, poorly fitted or top-dose-only effect; inactive = no such curve, though single readings can be large or run the other way;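 further: % of control where 0% means no effect; miR-21 action dims this reporter so a rising signal means less miR-21 action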
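HeLa miR-21-FLuc reporter line, endogenous miR-21; 2000 cells/well in DMEM/10% FBS; compound titration up to ~40uM final, 48 h, 37 degree Celsius; luciferase detection reagent, 15 min lysis, CCD luminescence.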
Rango complex inh = qHTS Assay for Inhibitors of Rango (Ran-regulated importin-beta cargo) - Importin beta complex formation; Rango CFP/YFP FRET sensor + importin beta, 45 min; 340,000 tested, 0.031% active; AID 540263, 2011; Importin subunit beta-1 (Homo sapiens), Q14974; Potency, µM (top dose mostly 92.2 µM), inactives show top-dose inhibition of complex formation; active = rising FRET ratio curve, often small or poorly fitted; inconclusive = mostly compound fluorescence or quenching in the first reads; inactive = flat curves in all reads;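 further: potency means the concentration at half of the fitted maximal effect; 0% = DMSO wells and 100% = buffer wells lacking importin beta; nearly all actives have a fitted effect of over 15% in size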
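Inhibition scored from the CFP 486 nm/YFP 530 nm FRET ratio 45 min after adding 0.125 microM importin beta to 50 nM Rango biosensor preincubated 5 min with compound (room temperature, PBS with DTT, Tween-20, BSA). No-importin wells as positive control.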
GLA inh pH 4.5 = qHTS Assay for Inhibitors of Human alpha-Galactosidase at pH 4.5; activity change, negative = inhibition, % at 105 µM; 230,000 tested, under 10 active; purified enzyme, 4-MU-alpha-Gal fluorescence, pH 4.5; inconclusive = small, poorly fitted or top-dose-only inhibition, or a rising curve; inactive = flat fitted curve, though single readings scatter; no compound was filed as active;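 further: 0% = full activity with enzyme and -100% = basal without enzyme; dose as in the result columns while the protocol names 77 µM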
Target sequence (P06280 whole entry, looked up): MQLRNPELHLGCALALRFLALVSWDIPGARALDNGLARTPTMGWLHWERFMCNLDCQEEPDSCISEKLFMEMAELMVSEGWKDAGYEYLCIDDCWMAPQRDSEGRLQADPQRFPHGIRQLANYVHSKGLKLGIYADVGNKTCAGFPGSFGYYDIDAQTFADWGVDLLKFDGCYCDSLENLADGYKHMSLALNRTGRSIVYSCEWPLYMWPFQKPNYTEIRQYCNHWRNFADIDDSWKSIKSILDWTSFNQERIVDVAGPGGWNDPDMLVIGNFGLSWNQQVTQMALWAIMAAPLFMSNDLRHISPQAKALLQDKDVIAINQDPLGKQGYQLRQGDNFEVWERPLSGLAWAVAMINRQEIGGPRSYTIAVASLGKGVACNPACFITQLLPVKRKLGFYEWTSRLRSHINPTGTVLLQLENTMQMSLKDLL
Rango release inh = qHTS Assay for Inhibitors of RanGTP induced Rango (Ran-regulated importin-beta cargo) - Importin beta complex dissociation; Snurportin-1 (Homo sapiens) + GTP-binding nuclear protein Ran (Homo sapiens) + Importin …; Biochemical FRET Rango-importin beta, RanGTP-induced dissociation; Potency, µM (doses to about 46.1 µM), without a hit: at the top dose activity change, negative = inhibition; 340,000 tested, 0.071% active; AID 540253, 2011; active means falling FRET ratio curve, often poorly fitted, with flat reads before Ran was added; inconclusive means other falling curves, or compound fluorescence or quenching; inactive means flat or rising ratio curve;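 further: potency means the concentration at half of the fitted maximal effect; % of control where 0% means no effect; nearly all actives have a fitted effect of over 45% in size; -100% = wells without RanGTP and RCC1; the record marks most hits as doubtful in a second field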
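Quantitative HTS using a FRET biosensor: 0.1 uM Rango, 0.25 uM importin beta, 0.6 uM Ran, 2 mM GTP, 0.2 uM RCC1 final, PBS with DTT, Tween-20 and BSA. Post-read taken 45 min after Ran addition.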
Numbers without * were called inactive; ? = inconclusive; . = no result given; & = joins results of further samples; [ ] = dose if it differs, or a comment. Some of the compounds tested; count on the stated rates, not on these rows.

SMILES	miR-21 FLuc	Rango complex inh	GLA inh pH 4.5	Rango release inh
CCC(C)(C)NC(=O)CN(Cc1cccs1)C(=O)CCC(=O)Nc1nccs1	4.8%	-0.7%	-3.9	20.6%
CCN1C(=O)[C@H]2[C@@H](c3ccc(-c4ccc(Cl)c(Cl)c4)cc3)N3CCCC[C@@]3(C(=O)OC)[C@H]2C1=O	.	0.4%	.	5.9%
NC(=O)CC(NC(=O)c1cccc(Br)c1)c1ccc(N2CCC(N3CCCC3)CC2)c([N+](=O)[O-])c1 (stereo not given)	-2.3%	-2.3%	1.0	-20.1%
CC(C)C1NCCc2c1sc1ccccc21 (stereo not given)	.	-0.3%	.	8.0%
CC(c1ccccn1)C(C)(O)C(C)c1ccccn1 (stereo not given)	.	3.7%	.	5.1%
COc1ccccc1Nc1nc(-c2sc(N)nc2C)cs1	-15.0%	0.1%	.	-21.1%
CC(C)Cn1c(CN2CCCCC2C)nc2c1c(=O)n(C)c(=O)n2C (stereo not given)	-6.7%	0.1%	-14.6	-3.5%
Cc1cccc(Nc2nnc(SC3CCOC3=O)s2)c1C (stereo not given)	-2.7%	0.7%	-2.3	3.3%
CCCN1CCN(C(=S)Nc2ccc(S(N)(=O)=O)cc2)CC1	2.8%	1.3%	0.0	11.6%
O=C(NCC1CCCN1S(=O)(=O)c1cccs1)C(=O)Nc1ccc(F)cc1F (stereo not given)	.	5.0%	.	-9.2%
O=C(C1CCN(S(=O)(=O)c2ccc(Cl)s2)CC1)N1CCN(c2ccccc2)CC1	.	-1.6%	.	24.9%
COC/C=C/C1=CC2=CC(=O)C(C)(OC(=O)CCC(=O)OC)C(=O)C2=CO1 (stereo not given)	0.4%	.	-3.0&-7.9	.
Cc1ccc(OCc2nc(-c3ccccn3)n[nH]2)cc1	-24.5%	-4.5%	7.8	17.8%
CS(=O)(=O)c1ccc(Oc2ccc(-c3nnco3)cc2)c([N+](=O)[O-])c1	-0.4%	-0.6%	.	-1.2%
COc1ccc(CCNC(=O)CSc2ccc(-c3cccs3)nn2)cc1OC	-7.5%	-0.7%	1.1[21.1 µM]	0.9%
Cc1ccc(-c2cccc(C3CC=CC4C3C(=O)N(Cc3ccccc3)C4c3ccc(C(F)(F)F)cc3)c2)cc1 (stereo not given)	7.1%	-6.0%	1.2	-7.3%
CCOC(=O)C(=O)Nc1ccc(S(=O)(=O)Nc2nccs2)cc1	-5.2%	2.8%	.	16.5%
CN(CC(=O)Nc1ccc(Cl)cc1)C1CCCCC1	-4.7%	-3.7%	.	10.4%
Cc1cc(C(=O)COc2cc(F)ccc2[N+](=O)[O-])c(C)n1CC1CCCO1 (stereo not given)	.	-1.3%	.	-1.9%
CCSc1ccccc1C(=O)NCc1ccc(OC)cc1	-7.4%	-0.1%	-6.6	3.4%
O=C(Nc1cccc(Cl)c1)c1ccc2c(c1)OCCO2	-12.4%	0.8%	.	1.5%
CCN(CC)C(CNC(=O)CSc1nnnn1-c1cccc(F)c1)c1ccco1 (stereo not given)	.	-1.0%	.	6.5%
C/C(N)=C(/C#N)C(=O)CSc1nc2cc(Cl)ccc2c(=O)n1-c1ccc(C)cc1	-26.3%	-1.5%	0.0	7.4%
O=C(N/N=C/c1cccnc1)C(=O)N1CCCCCC1	-0.3%	0.3%	-2.1	-5.1%
CCCS(=O)(=O)c1c(S(=O)(=O)CCC)c2cc(-c3ccncc3)ccn2c1C(=O)OC	-6.3%	?	?	-29.3%
Cc1cccc(C)c1NC(=O)C1CCCN1C(=O)Nc1cccc(F)c1 (stereo not given)	7.7%	-4.9%	.	-1.9%
COC(=O)c1cc(OC)c(OC)cc1NC(=S)N1CCN(c2ccccn2)CC1	-9.1%	0.2%	1.9	-5.0%
CCOC(=O)CCN1C(=O)c2ccccc2Sc2ncccc21	-1.3%	-1.7%	.	-13.8%
CCOc1ccc(-c2cn(S(=O)(=O)c3cccc4nsnc34)nc2N)cc1	0.4%	5.3%	-2.1	-0.7%
O=c1[nH]ncc2c3ccccc3n(Cc3ccc(F)cc3)c12	8.0%	-0.8%	2.8	4.4%
CC(C)Oc1ccccc1C1(c2ccccc2)NC(=O)NC1=O (stereo not given)	1.8%	-0.4%	.	-2.2%
CCc1nn(CC(=O)NCc2cccnc2)c(=O)c2cc3occc3n12	-16.1%	-3.6%	.	2.4%
O=C(NCC(=O)N1CCCCCCC1)c1ccccc1Br	.	-0.7%	.	1.3%
C=CCOc1ccc(CNn2c(C)n[nH]c2=S)cc1OC	-33.4%	1.4%	-14.4	-8.2%
CCOC(=O)[C@@H]1[C@H]2COc3ccc(Br)cc3[C@@H]2N2C(=O)N(c3cccc(F)c3)C(=O)[C@]12C	.	-1.0%	.	-13.3%
COc1cc(OC)nc(Oc2cccc(Cl)c2C)n1	.	-0.8%	.	-5.0%
Cn1c(SCC(=O)c2c(N)n(C)c(=O)n(C)c2=O)nnc1-c1ccccc1F	0.0%	0.3%	7.1	-2.4%
CC1(C)NC(=O)N(CC(O)Cn2c3ccccc3c3ccccc32)C1=O (stereo not given)	-17.2%	1.4%	8.2	2.0%
Cc1ccc(-c2nnc3ccc(SCC(=O)Nc4cc(C)on4)nn23)cc1	-6.0%	-1.1%	3.5	0.9%
CC(C)CCNC(=O)CN(C(=O)CCC(=O)Nc1ccccn1)c1ccc(F)c(Cl)c1	2.6%	0.5%	-7.3	0.5%

A second format for 2 compounds above:
| miR-21 FLuc | Rango complex inh | GLA inh pH 4.5 | Rango release inh | SMILES |
| --- | --- | --- | --- | --- |
| -15.0% | 0.1% | . | -21.1% | COc1ccccc1Nc1nc(-c2sc(N)nc2C)cs1 |
| -6.7% | 0.1% | -14.6 | -3.5% | CC(C)Cn1c(CN2CCCCC2C)nc2c1c(=O)n(C)c(=O)n2C (stereo not given) |

Next part.
SMILES	miR-21 FLuc	Rango complex inh	GLA inh pH 4.5	Rango release inh
CC12CCC(C(=O)NC3CCCCC3)([C@H](Br)C1=O)C2(C)C (stereo not given in full)	-9.6%	2.3%	-4.8	19.8%
COc1ccc(/C=N/NC(=O)c2[nH]c(C)c(C(=O)N/N=C/c3ccc(OC)cc3)c2C)cc1	2.1%	-3.0%	-6.0	17.8%
CS(=O)(=O)N1CCc2cc(C(=O)Nc3ccccc3Br)ccc21	-53.7%	-0.4%	.	3.6%
COc1ccccc1OCC(=O)Nc1ccc(S(=O)(=O)Nc2cc(C)nc(C)n2)cc1	0.5%	1.7%	3.1	4.6%
O=C(NCCCO)C(=O)NCC(c1ccc2c(c1)OCO2)N1CCN(c2ccc(F)cc2)CC1 (stereo not given)	0.1%	0.5%	.	-1.8%
CC1CCC(C(O)(C(=O)O)C2CCCCC2)CC1C (stereo not given)	.	0.8%	.	11.1%
CCOc1ccc(CN2C(=O)c3ccccc3C2C(=O)NCC2CCCO2)cc1 (stereo not given)	-0.5%	1.0%	-7.4	-1.2%
NC(=O)c1ccccc1NC(=O)c1ccc2ccccc2c1	-42.8%	0.2%	.	-3.3%
COc1ccccc1NC(=O)c1ccc(COc2ccccc2Br)o1	-8.5%	-2.9%	.	-3.1%
COc1ccc(-c2cc(C)nc3c(-c4ccccc4)cnn23)cc1	-71.7%	?	-19.2	-9.8%
COC(=O)NCCc1cc(OC)c(OC)cc1S(=O)(=O)N1CC(=O)Nc2ccccc21	-3.2%	?	.	-15.4%
CCN(C(=O)COC(=O)C12CC3CC(CC(O)(C3)C1)C2)c1c(N)n(Cc2ccccc2)c(=O)[nH]c1=O	.	-2.9%	.	38.2%
COc1ccc(OC)c(-c2csc(NC(=O)COC(=O)C3(C)CC3(Cl)Cl)n2)c1 (stereo not given)	.	4.3%	.	2.6%
COc1cc(C(=O)NC(C)CCn2cccn2)ccc1OC1CCN(C(C)=O)CC1 (stereo not given)	0.2%	2.6%	.	-14.3%
Cc1ccc(CNC(=O)c2cncc(Br)c2)cc1	-6.7%	3.7%	4.2	17.8%
COC(=O)c1c(N2C(=O)[C@H]3[C@@H](C2=O)[C@]2(C(=O)Nc4c2ccc(C)c4C)N2CCC[C@@H]32)sc(C)c1C	-3.8%	-1.5%	-7.3	-1.4%
O=c1c(NCCc2ccccc2)c(-c2ccccc2)c1=O	0.7%	0.5%	.	10.0%
O=C(Nc1cccnc1Cl)c1cc(-c2ccc(F)cc2)on1	0.9%	0.3%	.	-7.3%
CS(=O)(=O)N(CC(=O)N1CCc2ccccc2C1)c1ccc(Br)cc1	.	2.1%	.	-3.4%
CCCNS(=O)(=O)c1ccc(OCC(=O)N2CCCC2)cc1	-0.3%	0.9%	9.7	0.0%
CC(C)C(=O)Nc1nnc(-c2ccccc2)o1	-9.9%	-2.4%	12.2	-20.0%
Cc1noc(C)c1C(=O)Nc1ccc(S(=O)(=O)N2CCCCC2)cc1	5.5%	0.9%	.	-9.6%
Cc1occc1-c1nnc(SCC(=O)NCc2cccs2)n1-c1ccc(F)cc1	3.2%	0.6%	1.6	0.6%
COc1ccc([C@H]2CC(=O)C=C(c3cc(OC)ccc3OC)C2)cc1	.	2.8%	.	22.7%
Cc1ccc2nc(C3CCCN(C(=S)Nc4ccccc4C)C3)[nH]c2c1 (stereo not given)	4.4%	0.1%	7.8	0.4%
CN(C(=O)COc1ccc(Cl)cc1Br)C1CCCCC1	-41.8%	-1.3%	.	-1.3%
CC(C)(C)NC(=O)COC(=O)c1ccc2c(c1)C(=O)N(Cc1ccco1)C2=O	0.4%	-0.5%	.	2.3%
CC(C)c1ccc(NC(=S)NNc2ccc(Cl)c(C(=O)O)c2)cc1	-24.0%	-0.7%	-9.1	-4.1%
CSC(=NC#N)N1CCN(c2ccc(Cl)cc2)CC1	-29.9%	2.6%	-4.0	3.7%
c1ccc(-n2ncc3c(N4CCN(c5ccccn5)CC4)nc(N4CCCCCC4)nc32)cc1	0.4%	?	1.3	9.2%
CC(C)=CCN1CCN(Cc2ccc3nsnc3c2)CC1CCO (stereo not given)	1.1%	-0.9%	3.8	0.0%
OCCNc1nc(N2CCCC2)nc(N2CCCC2)n1	-12.3%	-2.5%	2.8	1.7%
O=C(C1CCCO1)N1CCN(C(=S)Nc2ccccc2)CC1 (stereo not given)	-1.6%	-2.6%	-11.6	0.0%
CCOc1ccc(NC(=O)CN(C)C(=O)c2ccc(N3CCCCCC3)c([N+](=O)[O-])c2)cc1OCC	.	-1.0%	.	-17.0%
O=C(O)C1(c2ccccc2)CCN(S(=O)(=O)c2ccccc2)CC1	0.1%	-0.3%	.	12.5%
CC(=O)N(C)c1ccc(C(O)(C(F)(F)F)C(F)(F)F)cc1	0.8%	4.4%	-2.3	-6.7%
COc1ccc(C(CNC(=O)c2cccc(S(=O)(=O)N(C)c3ccccc3)c2)N2CCCC2)cc1 (stereo not given)	.	0.7%	.	-0.2%
Cc1nc2ccc(NC(=O)c3cc(S(=O)(=O)N(C)c4ccccc4)ccc3Cl)cc2s1	19.5%	-1.6%	-3.7	-1.0%
COc1ccccc1N1N=C(c2cccs2)CC1c1ccccc1 (stereo not given)	-0.2%	?	2.9	?
CCn1c(SCC(=O)N2CCOCC2)nnc1-c1ccco1	-2.0%	3.5%	.	-11.6%
CCC(=O)N1CCN(c2nc(-c3ccc(Cl)cc3)cs2)CC1	-13.8%	-0.8%	2.5	6.9%
CCCOc1ccc(CNC(=O)C2CCN(C(=O)N3CCOc4ccccc43)CC2)cc1	19.9%	-0.2%	.	10.7%
COc1cccc(NC2=NCC(=O)N2Cc2cccs2)c1	-2.4%	-1.4%	2.9	-6.0%
OCCN1CCN(CCO)C1=S	.	-0.8%	.	-2.4%
CCOc1ccccc1NC(=O)N1CCCC1C(=O)Nc1nnc(CC)s1 (stereo not given)	-3.9%	-8.1%	-8.0	?
CCOc1ccc2nc(NC(=O)C3CCCN(S(=O)(=O)c4cccc5nonc45)C3)sc2c1 (stereo not given)	-3.5%	1.1%	-2.3	0.6%
C=CCn1c(-c2cccc(OC)c2)nc2nc3ccccc3nc21	-22.0%	0.9%	-2.1	1.2%
